KCNQ2 block – KCNQ2 potassium channel inhibitors, primary screen, cell-based, CHO-K1, FluxOR thallium flux, B-score (AID 2156). 20 min; hits give low values; only compounds with negative scores are shown here; some inactives read as strong as hits. 310,000 compounds, 1.1% hits. B-score at 10 µM. O88943;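 active means fluorescence ratio B-score at most minus 3 library SDs, with starting brightness B-score within 2 library SDs, cut at about -5.5 in these data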
Target sequence (O88943 whole entry, looked up): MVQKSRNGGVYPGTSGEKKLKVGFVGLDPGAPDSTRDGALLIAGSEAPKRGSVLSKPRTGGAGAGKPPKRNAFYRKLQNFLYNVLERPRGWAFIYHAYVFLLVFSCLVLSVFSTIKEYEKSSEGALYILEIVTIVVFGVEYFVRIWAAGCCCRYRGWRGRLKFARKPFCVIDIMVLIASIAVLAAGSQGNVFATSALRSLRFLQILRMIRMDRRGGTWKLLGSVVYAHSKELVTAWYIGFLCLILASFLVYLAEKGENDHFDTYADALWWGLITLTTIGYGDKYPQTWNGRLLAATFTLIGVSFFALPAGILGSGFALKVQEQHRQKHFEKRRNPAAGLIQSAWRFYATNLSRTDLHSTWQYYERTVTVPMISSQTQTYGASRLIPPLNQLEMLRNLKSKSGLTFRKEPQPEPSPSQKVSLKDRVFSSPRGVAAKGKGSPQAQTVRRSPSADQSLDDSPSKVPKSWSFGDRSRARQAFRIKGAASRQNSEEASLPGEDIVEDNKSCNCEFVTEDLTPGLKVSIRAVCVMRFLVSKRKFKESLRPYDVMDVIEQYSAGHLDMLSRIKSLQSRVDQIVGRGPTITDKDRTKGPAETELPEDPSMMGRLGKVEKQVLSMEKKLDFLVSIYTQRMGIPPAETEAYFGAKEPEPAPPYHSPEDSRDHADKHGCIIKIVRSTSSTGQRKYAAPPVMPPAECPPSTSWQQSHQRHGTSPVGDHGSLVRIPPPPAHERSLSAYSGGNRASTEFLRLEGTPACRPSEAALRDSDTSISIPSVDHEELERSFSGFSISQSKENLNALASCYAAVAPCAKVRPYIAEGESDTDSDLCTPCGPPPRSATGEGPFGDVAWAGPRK
KCNQ2 block baseline – recorded beside KCNQ2 block, whose call it bears; B-score; measured here: initial fluorescence intensity artifact check;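 brightness before thallium and not channel activity; 0 = typical well and far values either way flag optical interference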
* hit, by the source's call; i = inactive. Not all compounds are listed; rates above refer to the full screens.

Start of the data: the first four records (preview)
molecule	KCNQ2 block	KCNQ2 block baseline
Cc1ccc(S(=O)(=O)/C(C#N)=C/c2c(N3CCOCC3)nc3c(C)cccn3c2=O)cc1	i	-1.1
O=C(c1ccccc1)c1ccc(N2CCOCC2)c(NC(=O)c2ccco2)c1	i	-0.25
CC1CCN(c2ccc(C=O)o2)CC1	i	0.74
COc1ccc(C2NCCc3c2[nH]c2ccccc32)cc1CN1CCc2cc(OC)c(OC)cc2C1C (stereo unspecified)	i	-0.51

Results, previewed entries included:
molecule	KCNQ2 block	KCNQ2 block baseline
Cc1ccc(S(=O)(=O)/C(C#N)=C/c2c(N3CCOCC3)nc3c(C)cccn3c2=O)cc1	i	-1.1
O=C(c1ccccc1)c1ccc(N2CCOCC2)c(NC(=O)c2ccco2)c1	i	-0.25
CC1CCN(c2ccc(C=O)o2)CC1	i	0.74
COc1ccc(C2NCCc3c2[nH]c2ccccc32)cc1CN1CCc2cc(OC)c(OC)cc2C1C (stereo unspecified)	i	-0.51
Cc1ccc(/C=N/NC(=O)COc2ccccc2-c2ccccc2)cc1	i	-3.7
COC(=O)c1[nH]c2cccc(OC)c2c1NC(=O)CCN1CCSCC1	i	0.7
O=S(=O)(c1ccc2oc3ccccc3c2c1)N1CCOCC1	i	-0.23
O=C1CC(c2ccccc2)CC(=O)C1CS(=O)(=O)c1ccccc1 (stereo unspecified)	i	-0.84
COc1ccc(Nc2ncnc3nc[nH]c23)cc1OC	i	1.1
COc1cc(OC)nc(Oc2cc(/C=N/O)ccc2OC)n1	i	1.4
Cc1cc(NC(=O)CSc2nnc(-c3ccncc3)n2C)n(-c2ccccc2)n1	i	-0.28
CN(C)S(=O)(=O)c1cccc(C(=O)NCC(=O)NC2CCN(Cc3ccccc3)CC2)c1	i	0.75
COC(=O)C(NC(=O)c1ccccc1C(=O)O)c1ccc2ccccc2c1 (stereo unspecified)	i	-0.93
Cc1ccc2nc(-c3cccnc3)cc(C(=O)Nc3ccc(F)cc3C)c2c1	i	1.2
O=C(Cc1ccc(Cl)cc1)Nc1cccc(C(=O)Nc2ccccc2C(=O)O)c1	i	-1.2
CCc1ccccc1NC(=S)N1CCNC(=O)C1CC(=O)OC (stereo unspecified)	i	1.4
COc1ccc2[nH]c(C(=O)O)c(NS(=O)(=O)c3ccc(F)cc3)c2c1	i	-1.1
O=C(NCCSc1ccccc1)c1ccc(Br)cc1	i	-0.23
N#Cc1c(NC(=O)c2ccc(-c3ccccc3[N+](=O)[O-])o2)sc2c1CCCC2	i	1.4
C/C(=N\NC(=O)c1ccc(Cl)c(Cl)c1)c1ccccn1	i	0.5
O=C(Cn1cnc([N+](=O)[O-])n1)c1ccc(O)c(O)c1	i	0.07
CS(=O)(=O)N(CC(=O)Nc1ccc(S(=O)(=O)N2CCCC2)cc1)c1ccccc1	i	1.6
CN1OC(COC(=O)c2ccc(Cl)cc2)CC1c1ccccc1 (stereo unspecified)	i	-0.51
NC(=O)c1ccccc1NC(=O)c1ccccc1Cl	i	-0.43
CCCCc1ccc(S(N)(=O)=O)cc1	i	1.4
CC(C)(C)c1nc(SCC(=O)Nc2ccc3c(c2)OCCO3)c2ccccc2n1	i	-0.77
Cc1ccc2oc(=O)c3cc(C(=O)NCCCN4CCN(C)CC4)sc3c2c1	i	-0.13
O=c1ccc(NS(=O)(=O)c2ccc(Cl)cc2)cn1Cc1ccc(Cl)c(Cl)c1	i	-0.5
CN1CCN(CCNC(=O)c2cn(Cc3ccccc3F)nn2)CC1	i	1.2
COc1ccc(Cn2nc(-c3ccccc3)c(N3CCCCC3)cc2=O)cc1	i	-0.28
O=C(NC1CCSc2ccccc21)c1cc(S(=O)(=O)N2CCOCC2)ccc1F (stereo unspecified)	i	-0.93
COc1ccc(C(=O)CN2C(=O)c3ccccc3S2(=O)=O)cc1Br	i	0.1
COc1ccc(NC(=O)c2ccc(COc3ccccc3OC)o2)cc1OC	i	0.67
Cc1ccccc1C(=O)N/N=C/c1ccncc1	i	0.17
Cc1ccccc1S(=O)(=O)NC1OC(=O)C(Cl)=C1Cl (stereo unspecified)	i	1.2
Cc1nc([N+](=O)[O-])c(NCCO)n1Cc1ccccc1	i	0.66
O=C(CCC(NC(=O)OCc1ccccc1)C(=O)O)OCc1ccccc1 (stereo unspecified)	i	2.6
O=C(CSc1nc(-c2ccc(F)cc2)cs1)NC(=O)NCc1ccco1	i	-0.08
Cc1ccc(NC(=O)CSc2nnc(-c3cnccn3)n2C)cc1C	i	-0.54
Cc1c(CN(C)C)c2c(n1Cc1ccccc1)C(=O)c1ccc(Br)cc1-2	i	-2.4
COc1ccc(NC(=O)c2ccc3[nH]c(=O)c(=O)[nH]c3c2)c(OC)c1	i	-1.3
Cc1csc(NC(=O)CCn2c(=O)oc3ccccc32)n1	i	-0.87
COC(=O)c1cc(COC(=O)c2cccnc2SC)oc1C	i	-1.7
Nc1ncnc2nc(SCCc3ccccc3)[nH]c12	i	0.02
CCN(CC)CCCN=C1N[C@@H](c2ccccc2)C(C(=O)OC)=C(C)N1CC	i	-0.53
CCN1CCN(C(=O)CN2C(=O)c3ccccc3S2(=O)=O)CC1	i	0.76
COc1ccnc(Oc2ccc(F)cc2)c1C(=O)N/C=N/OCc1ccccc1	i	-0.05
O=C(NCCCCCNC(=O)c1ccccn1)c1ccccn1	i	-1.1
CN(CC(=O)Nc1ccc(Cl)cc1)CC(=O)Nc1ccc(F)c(F)c1F	i	0.5
Cc1cccc(N2CCN(C(=O)C3CCCCC3)CC2)c1C	i	0.89
COc1ccc2oc(=N)c(C(=O)Nc3cccc(C)c3C)cc2c1	i	0.05
COC(C[C@@H](O)[C@H](C)[C@@H](O)COCc1ccccc1)OC	i	-0.65
S=c1[nH]nc(C2CC2c2ccc(Cl)cc2)n1-c1ccc(Cl)cc1 (stereo unspecified)	i	1.4
CCn1c(Cc2ccccc2)nnc1SCC(=O)Nc1ccccc1F	i	-1.6
COC(=O)Cc1cc(=O)n2[nH]c(C)cc2n1	i	1.6
CC(C)NC(=O)CCCc1c[nH]c2ccccc12	i	0.73
Cc1occc1C(=O)N1CCN(Cc2ccccc2)CC1	i	0.56
Cc1c(Cl)cccc1NC(=O)Nc1c(C)n(C)n(-c2ccccc2)c1=O	i	0.4
COC(=O)c1ccc(NC(=O)Cn2c(-c3nonc3N)nc3ccccc32)cc1	i	1.4
Cc1cc2nn(-c3ccc(Cl)cc3)nc2cc1N	i	0.33

Remaining list, next part:
molecule	KCNQ2 block	KCNQ2 block baseline
CCCCNc1ccc2c3c(cccc13)C(=O)N(CCCC)C2=O	i	76
O=C(COc1ccc(Cl)cc1Cl)c1ccc[nH]1	i	-0.12
O=C(Nc1ccccn1)c1cc2ccccc2cc1O	i	0.9
NNC(=O)c1ccc(Cn2cc(Br)cn2)cc1	i	0.32
O=c1nc2ccccc2c2n1CC(CN1CCN(C(c3ccccc3)c3ccccc3)CC1)N2 (stereo unspecified)	i	0.54
FC(F)(F)c1ccccc1/C=N/Nc1ccccn1	i	0.36
C=CCNS(=O)(=O)c1cccc2cc(C(=O)O)c(O)cc12	i	1.8
CC(C)=CCSc1nnc([C@@H](NC(=O)OC(C)(C)C)C(C)C)o1	i	1.9
CC1(C)CC(NC(=O)CCc2nnc(CCCCc3ccccc3)o2)CCO1 (stereo unspecified)	i	0.51
CCN(CC)S(=O)(=O)c1ccc(N2CCCCC2)c(NC(=O)C2CCN(C(=O)c3ccc(F)cc3)CC2)c1	i	0.64
C=CCn1c(Cc2cccs2)nnc1SCC(=O)c1ccc2ccccc2c1	i	-0.5
Cc1ccc(S(=O)(=O)CCC(=O)OCC(=O)N2c3ccccc3NC(=O)C2(C)C)cc1	i	-2.2
CCN(CC)c1c(-c2ccccc2)c2cc(C)ccc2[nH]c1=O	i	-0.46
O=C1CC(c2ccccc2)CN1C(=O)c1cccnc1 (stereo unspecified)	i	-0.74
O=C(c1ccc(Cl)cc1)c1oc2ccccc2c1CS(=O)c1ccc(Cl)cc1 (stereo unspecified)	i	-0.27
O=c1onc(-c2ccc(Cl)cc2)n1Cc1ccc(F)cc1	i	0.08
COCCCn1c(=NC(C)=O)c(C#N)cc2c(=O)n3cccc(C)c3nc21	i	2.1
O=C(O)c1cccc(Nc2ccnc(Nc3cccc(C(=O)O)c3)n2)c1	i	-2.1
Cn1cc(CN2C[C@H]3CC[C@H]2C3)c(-c2ccccc2F)n1	i	-0.41
CCCCCCSc1cc(-c2nc3ccc(C)cn3c2NCc2ccccc2)ccc1OC	i	0.5
CCOC(=O)C1CCCN(C(=S)Nc2cc(C)cc(C)c2)C1 (stereo unspecified)	i	-0.61
COc1ccc(CNS(=O)(=O)c2cc3c(cc2Cl)NC(=O)CO3)cc1	i	0.14
CSc1oc(-c2ccccc2)nc1S(=O)(=O)c1ccc(F)cc1	i	0.24
CCCc1cc(=O)[nH]c(Nc2ccc3c(c2)OCCO3)n1	i	1.2
CCOC(=O)C1(Cc2ccc(Cl)cc2)CCN(C(=O)c2sc(C)nc2C)CC1	i	0.46
Cc1ccc(SCC(=O)N(C)C2CCS(=O)(=O)C2)cc1 (stereo unspecified)	i	-0.06
Cc1cc(Nc2ccc(F)cc2F)n2ncnc2n1	i	0.05
CC(=O)Nc1cccc(C(=O)Nc2ccccc2N2CCOCC2)c1	i	2.2
O=C1/C(=C\c2ccc3c(c2)OCO3)CCC/C1=C/c1ccc2c(c1)OCO2	i	-0.41
Cn1cc(C(C[N+](=O)[O-])c2ccccc2)c2ccccc21 (stereo unspecified)	i	-3

2 records drawn at random from those above, as already listed:
molecule	KCNQ2 block	KCNQ2 block baseline
O=C(c1ccccc1)c1ccc(N2CCOCC2)c(NC(=O)c2ccco2)c1	i	-0.25
Cc1ccc2oc(=O)c3cc(C(=O)NCCCN4CCN(C)CC4)sc3c2c1	i	-0.13

(list continues)
molecule	KCNQ2 block	KCNQ2 block baseline
Cn1c(CNC(=O)CNS(=O)(=O)c2ccc(Cl)cc2)cc(=O)n(C)c1=O	i	0.19
CC(C)Cc1oc(C(=O)O)cc1CN1CCOCC1	i	-0.11
Cc1cccc(N2C(=O)c3ccccc3C2=O)n1	i	-0.88
CN1CCN(CCCNC(=O)CCC(=O)N2CCOc3ccccc32)CC1	i	-0.71
Cc1[nH]c(-c2ccc(F)cc2)cc1C(=O)N1CCN(c2cccc(Cl)c2)CC1	i	-0.3
OC(CN1CCCCC1)Cn1c2ccccc2c2cc(Br)ccc21 (stereo unspecified)	i	1.5
CN(C)S(=O)(=O)c1ccc(Cl)c(C(=O)Nc2ccccc2[N+](=O)[O-])c1	i	-0.75
CCOC(=O)C1=C(C)N=C2c3ccccc3C(=O)C2C1c1ccc(Br)cc1 (stereo unspecified)	i	0.58
COC(=O)c1ccc(C(=O)OC)c(NC(=S)N2CCOCC2)c1	i	-0.06
Cc1cc(NC(=O)CS(=O)(=O)c2cn(C)c3ccccc23)no1	i	1
CCCn1c(NC(=O)C2COc3ccccc3O2)nc2ccccc21 (stereo unspecified)	i	0.14
O=C(CSc1nc2scc(-c3ccco3)c2c(=O)n1-c1ccccc1)NCC1CCCO1 (stereo unspecified)	i	-0.81
CCn1c(=O)n(CC(=O)N(C)Cc2ccccc2)c(=O)c2ccccc21	i	-0.81
Fc1ccccc1/C=C/c1ccc2ccccc2n1	i	0.43
COc1ccc(Cl)cc1N(CC(=O)NCCSc1ccccn1)S(=O)(=O)c1ccccc1	i	-0.9
CN(C)C(=O)Oc1ccc[n+](C)c1	i	0.65
O=C1C2C3C=CC(C3=C(c3ccccc3)c3ccccc3)C2C(=O)N1Cc1ccccc1 (stereo unspecified)	i	1.3
Cc1cc(C)n(C2CC(=O)N(c3cc(Cl)cc(Cl)c3)C2=O)n1 (stereo unspecified)	i	-0.67
CCOC(=O)C1(Cc2cccc(OC)c2)CCN(Cc2cnc(C)s2)CC1	i	0.2
N#CC1=C(N)OC2=C(C(=O)CCC2)C1Cc1ccccc1 (stereo unspecified)	i	1.8
COc1ccc(C(=O)NC23CC4CC(CC(C4)C2)C3)cc1OC	i	3.2
Cc1c(N=C2C=CC(=O)c3ccccc32)c(=O)n(-c2ccccc2)n1C	i	-1.5
Clc1cccc(CN2CCN(Cc3nc(CCc4ccccc4)no3)CC2)c1	i	-3.6
Cc1ccc(-c2n[nH]c(=S)n2Cc2ccccc2)cc1	i	-0.23
O=C(CN(Cc1ccccc1)S(=O)(=O)c1ccc(Cl)cc1)NCC1CCCO1 (stereo unspecified)	i	2.6
O=C(CSc1cccc[n+]1[O-])c1ccc(-c2ccccc2)cc1	i	-0.41
O=C1C(Cl)=C(N2CCCCCC2)C(=O)N1c1ccccc1Cl	i	-0.14
Cc1[nH]n(C(N)=S)c(=O)c1N=Nc1ccc(S(=O)(=O)N2CCCCCC2)cc1	i	-0.09
Cc1cc(C(=O)Nc2nncs2)oc1C	i	1.4
COc1ccc(C2(C(=O)N3CCOCC3)CCCC2)cc1	i	-0.46
COC(=O)c1c(NC(NC(=O)C(C)C)C(Cl)(Cl)Cl)sc2c1CCC2 (stereo unspecified)	i	0.04
O=c1c2ccccc2nnn1COc1cccc(Cl)c1	i	-0.68
O=C(Cc1ccccc1)NC1CCSc2ccccc21 (stereo unspecified)	-5.8*	0.25*
CCCn1c(=N)n(CC(=O)c2ccc(Cl)cc2)c2ccccc21	i	0.88

Some of the entries above in another layout.
Under each structure – KCNQ2 block	KCNQ2 block baseline
Cc1[nH]n(C(N)=S)c(=O)c1N=Nc1ccc(S(=O)(=O)N2CCCCCC2)cc1
  i	-0.09
Cn1cc(C(C[N+](=O)[O-])c2ccccc2)c2ccccc21 (stereo unspecified)
  i	-3

Looked up above:
`O=c1c2ccccc2nnn1COc1cccc(Cl)c1` – KCNQ2 block baseline = -0.68
`COC(=O)c1c(NC(NC(=O)C(C)C)C(Cl)(Cl)Cl)sc2c1CCC2` (stereo unspecified) – KCNQ2 block baseline = 0.04

Screening data from PubChem BioAssay.
